Compound activity deposited in PubChem BioAssay by several laboratories.
MT1-MMP act inh: blockers of MT1-MMP proenzyme processing, primary screen, HT1080 RFP-PRO-GFP cells, GFP/RFP fluorescence | Matrix metalloproteinase-14 (Homo sapiens), P50281 | GFP/RFP ratio fluorescence, overnight; percent of plate control window, DMSO zero | GFP/RFP ratio change, % at 20 µM | 360,000 tested, 0.061% active | AID 651647, 2012;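 active means GFP/RFP ratio change of at least 30% with cell ATP level not reduced by more than half and red fluorescence within 50% of control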; further: strong numbers were not always called active
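Assay system: HT1080 cells carrying an RFP-PRO-GFP reporter | Dosing: Single dose of 20 µM compound, 1% DMSO final | Incubation: Cells overnight before dosing, compound overnight, 37 °C, 5% CO2 | Evaluation: GFP/RFP fluorescence ratio | Control set: DMSO and RFP-L50D-GFP cell wells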
Rce1 inh: yeast Rce1p protease inhibitors, primary screen, biochemical, fluorescence, cell-free homogeneous. 290,000 tested, 0.27% active. yeast membranes, quenched prenylated peptide cleavage fluorescence. calls only;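 active means fall in fluorescence gain of 50% or more versus controls, with final raw signal at or below 3038400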;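 further: plate controls were neutral control wells for no effect and wells lacking membranes for full effect; tested at 10 µM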
Target sequence (Q03530 whole entry, looked up): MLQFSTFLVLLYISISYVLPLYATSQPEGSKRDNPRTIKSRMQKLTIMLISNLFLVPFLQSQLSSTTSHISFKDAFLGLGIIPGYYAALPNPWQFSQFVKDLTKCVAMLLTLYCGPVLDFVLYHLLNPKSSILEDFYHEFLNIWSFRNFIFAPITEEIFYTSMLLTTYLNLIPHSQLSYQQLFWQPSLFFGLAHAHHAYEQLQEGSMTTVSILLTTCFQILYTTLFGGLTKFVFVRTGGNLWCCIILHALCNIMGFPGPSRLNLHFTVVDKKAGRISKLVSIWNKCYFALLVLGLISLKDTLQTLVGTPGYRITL
PABP FP inh: PABP poly(A) RNA binding inhibitors, primary screen, biochemical, fluorescence polarization, uHTS | Polyadenylate-binding protein 1 (Homo sapiens), P11940 | inhibition, % at 35 µM | 290,000 tested, 1% active | AID 2014, 2009;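 active means 50% or more with normal probe brightness, or confirmed in later tests; about a fifth of its hits are not listed in these tables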;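 further: calls also rest on retests at 20 µM and on dose response follow-up; controls were probe without protein and protein plus probe with vehicle; some compounds called inactive have numbers as strong as hits; many hits fall short of the cut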
eIF4H inh: human eIF4H binding inhibitors, primary screen, translation initiation inhibitor project, biochemical, uHTS, fluorescence polarization. eIF4H fluorescence polarization binding assay. 290,000 tested, 0.94% active. inhibition, % at 35 µM;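 active means 50% or more with normal probe brightness, or confirmed in later tests; about a fifth of its hits are not listed in these tables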;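 further: calls also rest on retests at 20 µM and on dose response follow-up; 0% = protein and probe with vehicle and 100% = probe without protein; strong numbers were not always called active; many hits fall short of the cut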
Yeast UUG start: modulators of yeast start codon fidelity, primary screen, whole organism, S. cerevisiae, single point, plate reader; S. cerevisiae UUG-firefly luciferase reporter, luminescence/redox ratio; activity score, % at 18.7 µM; 350,000 tested, 0.13% active; AID 602363, 2012;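 active means replicate mean at a twofold rise or more, about +100% in these data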;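 further: firefly luciferase made from a UUG start codon reports start codon fidelity; reporter light over untreated wells divided by growth signal over untreated wells; some hits fall short of that in this replicate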
CSC inhib: cancer stem cell viability inhibitors, primary screen, luminescence | AID 2717, 2010 | cancer stem cell-like cells viability | 300,000 tested, 1.1% active | inhibition, % at 7.5 µM;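 active means mean at 75% or more and at least half the replicates too; tested in HMLE shEcad cells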;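 further: 0% = median of negative and 100% = median of positive control wells; the first replicate is given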
Env fusion inh: inhibitors of HIV-1 Env-driven cell-cell fusion, primary screen, HeLa-JRFL effector, CEM21 target cells, luciferase. inhibition, % at 12.3 µM. 360,000 tested, 1.1% active;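 active means mean replicate inhibition score of at least 50 and every replicate individually at or above 50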;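 further: 0% = plate neutral controls and 100% = maraviroc near 300 nM; one replicate is shown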
eIF4H inh retest: second read-out of eIF4H inh, no call of its own (marks repeat the call); inhibition, %; compound at 20 µM; confirmation average;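 mean of two retest wells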
PABP FP inh retest: second read-out of PABP FP inh, no call of its own (marks repeat the call); inhibition, %; compound at 20 µM; confirmation repeats;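 mean of two retest wells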
MT1-MMP act inh RFP: also measured in MT1-MMP act inh; calls as there; RFP signal change, %; measured here: RFP expression control read;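 0 = vehicle wells; hits needed this value within 50% of zero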
* hit, by the source's call; i = inactive; · = not tested or not shown; [ ] = another dose, or the depositor's remark.

SMILES	MT1-MMP act inh	MT1-MMP act inh RFP	Rce1 inh	PABP FP inh	eIF4H inh	Yeast UUG start	CSC inhib	Env fusion inh	others
O=C(NCc1ccccc1)c1cc(C2CCCN(C(=O)c3ccc4c(c3)CCO4)C2)on1 (stereo unspecified)	-1	0	·	·	·	4	·	1
COc1ccc(N(C(=O)Cc2cccs2)C(C(=O)NC2CCCC2)c2ccncc2)cc1OC (stereo unspecified)	3	4	i	-2	-4	-10	-7	-1
Cc1ccc(NCC(=O)c2ccccc2)cc1Cl	0	8	i	-2	-7	-11	0	-59
CC(C)N(C)Cc1nnnn1CC(=O)NCCc1cccc(C(F)(F)F)c1	20	0	i	-1	0	4	4	18
CCn1ccc(C(=O)NC2=NCCS2)n1	-2	0	i	-9	4	·	-4	11
CCn1c(C)[n+](CC)c2ccc(S(=O)(=O)NC)cc21	0	5	i	31	-5	·	16	-28
Cc1nnc(N/N=C/c2ccc(-c3ccccc3F)o2)n1N	-2	5	i	10	0	·	5	-39
O=C(NN=C(Cc1ccccc1)Cc1ccccc1)C1CC1	-3	1	i	-2	-5	-22	-11	-1
CCOC(=O)c1ccc(NC(=O)CCC2COc3ccccc3O2)cc1 (stereo unspecified)	9	5	i	5	-5	-6	3	-9
O=C(CN(C(=O)c1csnn1)c1cccc2ccccc12)NCc1ccc(F)cc1	-2	2	i	1	-2	-18	-14	22
CNc1cc(-c2ccc(C(=O)OC)cc2)ncn1	3	-2	·	·	·	-1	·	2
CC(C)C(=O)NN(C(=O)c1ccccc1)c1ccccc1	-1	0	i	-12	2	·	-13	4
Fc1ccc(-c2nc3c4ccccc4ccn3c2Cc2cccc(Cl)c2)cc1	-8	1	·	·	·	-15	·	-11
CCN(C(=O)COC(=O)/C=C/c1nc2ccccc2s1)C1CCS(=O)(=O)C1 (stereo unspecified)	-5	-1	i	-4	-2	-8	21	9
OCC1CCCN(Cc2cn(Cc3ccccc3)nc2-c2cc3ccccc3o2)C1 (stereo unspecified)	3	3	i	-2	5	·	-9	9
CC(=O)Nc1ccc(Cl)cc1-c1ccccc1	-6	-10	·	·	·	-13	·	7
COc1ccc2c(c1)[nH]c1c(=O)n(Cc3ccncc3)cnc12	0	-7	i	-6	3	-6	0	-17
C=C(C)Cn1c(SCCCO)nc2c1c(=O)[nH]c(=O)n2C	7	3	i	4	6	-9	3	·
CSc1ccc(S(=O)(=O)NC2CC2)cc1	1	2	i	0	-14	155*	-14	-8
COc1cc2c(=O)n(CCC(=O)NCC3CCCO3)c(=O)n(CC(=O)Nc3ccc(C)cc3C)c2cc1OC (stereo unspecified)	0	-1	i	3	1	-16	-7	-1
CC(=O)c1cc(F)c(N2CCOCC2)cc1C	4	-1	i	6	0	·	7	-106
Cc1ccc2[nH]c3c(N4CCOCC4)ncnc3c2c1	22	9	i	-6	-8	-8	-26	·
O=C(C1COc2ccccc2O1)N1CCN(Cc2ccc(Br)cc2F)CC1 (stereo unspecified)	1	-7	i	2	-17	15	10	60
COc1cc(/C=C2/SC(=S)N(c3ccccc3)C2=O)ccc1Oc1nc(N2CCOCC2)nc(N2CCOCC2)n1	-2	5	i	-2	-18	·	-6	-19
Fc1ccc(-n2nnc(-c3cnc4ccccc4c3)n2)cc1	2	1	i	-4	-7	-40	5	·
CCCCOc1ccc(C(O)(CCC)CCN2CCOCC2)cc1 (stereo unspecified)	3	-3	i	-2	-8	4	3	15
CCCOc1cccc(C(=O)N/N=C/c2coc3ccccc3c2=O)c1	-4	-2	i	-8	-7	3	-8	-10
CCNc1nc(SCC(N)=O)nc2sc3c(c12)CCN(C)C3	-20	6	i	42*	98	2	·	21	eIF4H inh retest=38;PABP FP inh retest=57*
Cc1cccc(NC(=O)Nc2ccncc2)c1	-2	4	i	-3	-2	4	-6	5
O=C(Nc1ccccc1C(=O)NC1CCCCC1)c1ccco1	-3	6	i	-15	4	·	-11	·
CCN(Cc1ccccc1)C(=O)C1CCN(C(=O)Nc2ccccc2)CC1	2	2	i	0	2	-4	-5	-32
CC(=O)Nc1cccc2c1C(=O)N(c1ccccc1OC(C)=O)C2=O	0	1	i	0	-2	-3	-7	-1
O=C(c1ccc2c(c1)OCCO2)N1CCN(c2ncc(C(F)(F)F)cc2Cl)CC1	1	-4	i	·	·	6	22	8
Cc1noc(C)c1NC(=O)N(C)C[C@H]1Oc2ccc(NC(=O)CCC(F)(F)F)cc2C(=O)N([C@H](C)CO)C[C@@H]1C	5	5	·	·	·	-10	-27	-12[16.7 µM]
O=C(COC(=O)Cc1ccc(F)cc1)NC(=O)NC1CCCC1	0	7	·	·	·	7	-7	·
Cc1cc(OC(=O)c2ccccc2Cl)ccc1N1C(=O)CCC1=O	4	7	i	-2	3	·	0	-2
Cc1ccnc(NC(=S)NC(=O)c2cccs2)c1	0	1	i	4	-4	-10	4	-178
O=C1CCC(C(=O)N2CCC(CCO)CC2)CN1Cc1ccc(Cl)cc1 (stereo unspecified)	2	2	i	-4	6	-7	-8	·
Cc1ccc(OCCCC(=O)Nc2cc(S(=O)(=O)N3CCOCC3)ccc2N2CCOCC2)cc1	-1	-1	·	·	·	-23	·	10
CC(=O)N1CCc2cc(S(=O)(=O)N3CCCCC3C)ccc21 (stereo unspecified)	6	5	i	2	-2	-25	-2	3
CCCN1C(C)C(C(=O)OCC)=CN(Cc2ccc(Br)cc2)S1(=O)=O (stereo unspecified)	-4	-11	·	·	·	-2	·	13
O=C(c1ccccc1)c1c[nH]c(C(=O)NCCCn2ccnc2)c1	3	1	i	-2	-2	-19	-6	·
COc1ccccc1C1(CCNS(=O)(=O)c2ccc(C)cc2)CCOC(C(C)C)C1 (stereo unspecified)	1	-1	i	-2	14	-11	1	·
Cc1ccc(CSCC(=O)Nc2cc(S(=O)(=O)N3CCOCC3)ccc2OCC(F)(F)F)cc1	-4	-6	·	·	·	-13	·	52
CCN(CC)CCNC(=O)Cn1nc(Cc2cccnc2)c2ccccc2c1=O	-1	0	i	11	1	-8	-2	0
O=C1c2ccccc2NC(c2cnc3ccccc3n2)N1O (stereo unspecified)	10	12	i	6	-15	21	-11	·
Cc1ccc(N(C(C)C(=O)NCc2ccncc2)S(C)(=O)=O)cc1C (stereo unspecified)	-1	-1	i	-1	1	-16	-16	6
CCC(Oc1ccc(C)cc1)C(=O)Nc1ccc(S(=O)(=O)Nc2cc(C)on2)cc1 (stereo unspecified)	0	0	i	2	-11	-1	-14	-6
CC1CCC(=NNc2ccc(C(F)(F)F)cc2[N+](=O)[O-])CC1 (stereo unspecified)	4	3	i	1	-9	-8	-2	-23
C=CCn1c(C)c(C(C)=O)cc(NC(=O)c2ccccc2)c1=O	2	1	i	-1	0	·	-7	3
COC(=O)N/N=C/c1ccc(-c2ccc(C)c(Cl)c2)o1	1	6	i	2	-4	-19	-15	-11
COc1ccc(O)c(C(=O)c2cnc3c(c2)c(-c2ccc(F)cc2)c(C#N)c(=O)n3C)c1	-1	3	i	8	-4	·	3	6
CCOc1ccc(NC(=O)CCC(=O)N/N=C/c2ccc3c(c2)OCO3)cc1	-2	-2	i	-1	0	·	-2	-8
Cc1cc(=O)oc2cc(OCC3CC(c4ccc(Br)cc4)=NO3)ccc12 (stereo unspecified)	-2	-9	·	-9	-10	-17	27	·
CC1Sc2ccccc2N(Cc2ccc(OC(F)(F)F)cc2)C1=O (stereo unspecified)	-4	-6	·	·	·	-12	·	5
C=CCn1c(O)c(N=NC(=O)CNC(=O)/C=C/c2ccc(OC)cc2)c2ccccc21	0	-5	i	3	-2	-5	-7	16
CC(OC(=O)c1cccnc1Cl)C(=O)Nc1ccc(S(N)(=O)=O)cc1 (stereo unspecified)	4	8	i	10	1	·	-7	-1
Cc1ccc(C)c(NC(=O)c2ccc(OC(=O)c3ccco3)cc2)c1	4	6	i	-5	-4	-18	7	-16
Cc1ccc(S(=O)Cc2ccc(C(=O)N3CCN(C4CCCCC4)CC3)o2)cc1 (stereo unspecified)	4	3	i	-2	-10	5	-13	-12
CCOc1ccc(CN2CCN(C(=O)c3ccco3)CC2)cc1	3	1	i	3	10	-15	-21	-6

Further entries follow.
SMILES	MT1-MMP act inh	MT1-MMP act inh RFP	Rce1 inh	PABP FP inh	eIF4H inh	Yeast UUG start	CSC inhib	Env fusion inh	others
CCOC(=O)c1c(C)[nH]c(C(=O)CN(C)CC(=O)Nc2ccccc2Cl)c1C	-3	-1	·	·	·	-15	7	·
Cc1ccc2c(CN(C)Cc3ccccc3)cc(=O)oc2c1	-3	-5	·	·	·	4	·	-15
CSc1cccc(NC(=O)Nc2ccccc2)c1	3	-1	i	-8	0	-21	·	·
CCCCn1c(=O)[nH]c(=O)c2c(C(=O)OCC)cc(-c3cccs3)nc21	2	-3	i	-10	13	·	-3	-9
NS(=O)(=O)c1cccc(NC(=O)CSc2nc3ccccc3[nH]2)c1	5	3	i	-2	-4	3	-5	-62
O=C(CCC(=O)c1cccs1)OCC(=O)c1ccccc1F	2	8	·	·	·	-3	·	i
CN(CC(=O)Nc1ccccc1Br)Cc1nc2ccccc2c(=O)[nH]1	-3	-3	i	-2	6	-17	-10	·
On1nnc2cc(C(F)(F)F)ccc21	0	4	i	-7	-3	-22	-4	13
Cc1ccc(SCC(=O)NCCC2=CCCCC2)cc1	-2	6	i	-9	-4	-20	5	-58
Cc1cc(N2CCN(C)CC2)ccc1NC(=O)c1c2c(nc3ccccc13)CCN(Cc1ccccc1)C2	-9	-11	i	-2	14	·	-14	·
CCOC(=O)C1=C(C)NC(=S)NC1c1cccs1 (stereo unspecified)	1	6	i	3	-5	·	-12	7
CCN(CC)C(=O)[C@H]1C[C@H](CC(=O)NCc2ccco2)C(=O)N2CCc3c([nH]c4cc(-c5ccco5)ccc34)[C@]12C	-6	-17	·	·	·	14	·	-51
COCCn1cnnc1SCC(=O)c1ccc(S(=O)(=O)N2CCCC2)cc1	-6	2	i	2	-9	-8	27	-30
Cc1nn(Cc2ccccc2)c2c1C(c1ccco1)C(C#N)=C(N)O2 (stereo unspecified)	11	15	i	14	5	-8	-7	·
NC(=O)CC(NC(=O)Cc1ccc(Cl)cc1)c1ccc(NCC2CC2)c([N+](=O)[O-])c1 (stereo unspecified)	19	-6	i	-15	-11	-9	11	5
COc1ccccc1CN1CCC(CNS(=O)(=O)c2cc(-c3cc(C)no3)ccc2C)CC1	-4	-3	i	-1	-2	9	24	0
CC(C)CN(C(=O)c1cccc(F)c1)c1c(N)n(CC(C)C)c(=O)[nH]c1=O	-1	1	i	-1	8	-7	1	12

Fetched by structure from above, two records:
SMILES	MT1-MMP act inh	MT1-MMP act inh RFP	Rce1 inh	PABP FP inh	eIF4H inh	Yeast UUG start	CSC inhib	Env fusion inh	others
COCCn1cnnc1SCC(=O)c1ccc(S(=O)(=O)N2CCCC2)cc1	-6	2	i	2	-9	-8	27	-30
CC(C)CN(C(=O)c1cccc(F)c1)c1c(N)n(CC(C)C)c(=O)[nH]c1=O	-1	1	i	-1	8	-7	1	12
